gsp antag = qHTS for Antagonists of gsp, the Etiologic Mutation Responsible for Fibrous Dysplasia/McCune-Albright Syndrome: qHTS; gsp-mutant cells, cAMP HTRF, 30 min; control for the full effect not named in the record; Potency, µM (doses to about 76.9 µM), inactives show at the top dose activity change, negative = inhibition, usual class: inhibitors; 340,000 tested, 0.4% active; AID 624288, 2012; active = falling curve of any shape with a large fitted effect; inconclusive = falling curve, mostly with a smaller effect; inactive = flat or rising curve; cell line not stated here;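 also: intracellular cAMP measured with PDE inhibitor Ro 20-1724 present during compound exposure; potency is read from the fitted curve at half-maximal effect; % is scaled to controls: 0 for no effect and ±100 for the full control effect; nearly all actives have a fitted effect of over 65% in size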
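G418-selected cells were plated in DMEM/10% FBS for 16-24 h at 37C, then treated with compounds plus the PDE inhibitor […] (300 uM solution added) for 30 min at 37C. Intracellular cAMP was measured by HTRF after 30 min lysis at room temperature.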
Menin-MLL FL inh = qHTS Assay for Inhibitors Targeting the Menin-MLL Interaction in MLL Related Leukemias: Competition With Fluorescein Labeled MLL-derived Peptide; Fluorescence polarization, fluorescein-MLL peptide displacement from menin; FP activity change, % at 61.4 µM; 290,000 tested, under 10 active; AID 1766, 2009; inconclusive = falling polarisation curve, or a change in total fluorescence; inactive = total fluorescence flat and polarisation flat or rising; no compound was filed as active; the % refers to the polarisation; negative = inhibition;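 also: % of control where 0% means no effect; inhibitors lower the polarisation; unlabelled MLL peptide was the positive control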
D2 ag = Beta-Arrestin HTS for Positive Allosteric Modulators of the Human D2 Dopamine Receptor: Agonists; D(2) dopamine receptor (Homo sapiens), P14416; DiscoveRx PathHunter D2 beta-arrestin, luminescence, 90 min; 100% = 57 uM dopamine signal; activation, % (no concentration beside the values); 360,000 tested, 0.084% active; in the data active = activation above about 40%; inconclusive = about 15% to 40%; inactive = below about 15%; also: compound concentration not given in the record; the text of the record calls up to 30% inactive
Target sequence (P14416 whole entry, looked up): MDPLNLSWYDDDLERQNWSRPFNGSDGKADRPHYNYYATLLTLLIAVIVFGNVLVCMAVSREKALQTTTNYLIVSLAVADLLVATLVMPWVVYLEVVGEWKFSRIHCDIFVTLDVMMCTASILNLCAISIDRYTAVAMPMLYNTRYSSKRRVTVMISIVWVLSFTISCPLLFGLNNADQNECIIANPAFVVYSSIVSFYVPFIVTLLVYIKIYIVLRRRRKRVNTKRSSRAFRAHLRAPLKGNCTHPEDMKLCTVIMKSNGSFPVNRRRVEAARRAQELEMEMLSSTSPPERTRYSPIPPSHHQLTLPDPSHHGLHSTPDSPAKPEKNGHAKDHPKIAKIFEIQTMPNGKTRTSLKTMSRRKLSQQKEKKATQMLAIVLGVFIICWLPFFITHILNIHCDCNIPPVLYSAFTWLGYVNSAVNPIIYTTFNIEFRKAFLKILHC
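Agonist mode: compounds alone added to overnight-plated D2 PathHunter cells for 90 min at 37 C, with 57 uM final dopamine (EC100) defining full response. Beta-arrestin recruitment detected by chemiluminescent reagent, read after 1 h at ambient temperature.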
ClpP mod = qHTS Assay for Activators of ClpP | Potency, µM (titrated, usually from 57.5 µM), without a hit: at the highest dose activity change, negative = active | 340,000 tested, 1.9% active | ATP-dependent Clp protease proteolytic subunit (Bacillus subtilis (strain 168)), P80244 | purified B. subtilis ClpP, FRET peptide cleavage, 20 min; active = well fitted falling curve with a large enough effect; inconclusive = small, poorly fitted or top-dose-only effect; inactive = no such curve, though single readings can be large or run the other way; also: potency is read from the fitted curve at half-maximal effect; the source files actives as falling curves though it sought activators and does not explain the sign; nearly all actives have a fitted effect of over 65% in size; many hits overshoot -100%
Target sequence (P80244 whole entry, looked up): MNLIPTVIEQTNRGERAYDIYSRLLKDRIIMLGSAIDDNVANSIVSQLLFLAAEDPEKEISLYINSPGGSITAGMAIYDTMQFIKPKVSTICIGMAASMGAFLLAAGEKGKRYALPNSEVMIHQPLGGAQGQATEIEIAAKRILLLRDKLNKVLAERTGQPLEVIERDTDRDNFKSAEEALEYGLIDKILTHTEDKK
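Purified B. subtilis ClpP, 10 microg/mL final in Tris/HCl pH8 with KCl, BSA, glycerol and Tween-20, cleaved an Abz/nitrotyrosine-quenched decapeptide. Fluorescence (ex 320, em 430) was read at 0 and 20 min at room temperature. Delta was normalized to 5.8 microM ADEP and DMSO/no-enzyme controls.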
Sfp inh = qHTS Assay for Inhibitors of Bacillus subtilis Sfp phosphopantetheinyl transferase (PPTase); 4'-phosphopantetheinyl transferase ffp (Bacillus subtilis), Q9F4F7; Biochemical Sfp PPTase activity, qHTS; Potency, µM, without a hit: max response, negative = inhibition, most hits filed as inhibitors; 310,000 tested, 3.5% active; AID 1490, 2009; active = well fitted inhibition curve with a large enough effect; inconclusive = small, poorly fitted or top-dose-only effect, or another doubt; inactive = no such curve, though single readings can be large or run the other way;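 also: the enzyme is Sfp with the accession as filed and its product quenches rhodamine fluorescence; potency is read from the fitted curve at half-maximal effect; 0% = enzyme reaction without inhibitor and -100% = no enzyme wells; top concentration of the series not given in the record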
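Fluorescence-quenching assay: 15 nM Sfp-PPTase preincubated 15 min at room temperature with compound, then 5 uM rhodamine-CoA and 12.5 uM BHQ-2-labelled YbbR peptide added. Fluorescence (ex 525/em 598 nm) read at start and after 30 min; difference gives rate.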
gsp agonist = qHTS for Agonist of gsp, the Etiologic Mutation Responsible for Fibrous Dysplasia/McCune-Albright Syndrome: qHTS; Potency, µM (series often up to 76.9 µM), inactives show at the highest dose activation (cAMP increase), actives largely listed as activators; gsp mutant cells, cAMP HTRF, 30 min; control for the full effect not named in the record; AID 624287, 2012; 340,000 tested, 0.13% active; active = well fitted activation curve with a large enough effect; inconclusive = small, poorly fitted or top-dose-only effect, or another doubt; inactive = no such curve, though single readings can be large or run the other way; cell line not stated here;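 also: phosphodiesterase inhibitor Ro 20-1724 added with compounds to block cAMP breakdown; potency is read from the fitted curve at half-maximal effect; nearly all actives have a fitted effect of over 60% in size; about a fifth of the inactives were tested at one dose only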
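Cells in DMEM/10% FBS with G418 were pretreated with compounds in DMSO plus […] (300 uM stock) for 30 min at 37C. cAMP was measured by HTRF (cAMP-d2 plus anti-cAMP antibody-K) after 30 min at room temperature.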
PINK1 modulator = A Quantitative High throughput Screen to Identify Chemical Modulators of PINK1 Expression. AID 624263, 2012. PINK1 immunofluorescence, high-content cytometry, 24 h. 410,000 tested, 0.2% active. Potency, µM (titrated, usually from 76.6 µM), for the others: at the highest dose activation (PINK1 increase), actives largely listed as activators; active = well fitted activation curve with a large enough effect; inconclusive = small, poorly fitted or top-dose-only effect; inactive = flat fitted curve, though single readings scatter; cell line not stated here;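 also: potency is read from the fitted curve at half-maximal effect; % of control where 0% means no effect; nearly all actives have a fitted effect of over 65% in size; a mitochondrial uncoupler was the plate control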
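Compound titrations (5 concentrations, 24 h) on a stable cell line; DMSO and CCCP controls. Endpoint: fixed-cell PINK1 immunofluorescence with mitochondrial, cell and nuclear markers, scanned by microplate cytometer.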
* marks the source's active call; other numbers are inactive results; ? = inconclusive; / = no result given; & = joins results of further samples; [ ] = remark or other dose.

Values run as follows: D2 ag	PINK1 modulator	gsp agonist	Sfp inh	ClpP mod	Menin-MLL FL inh	gsp antag
> CCN(CC)S(=O)(=O)c1ccc(N/N=C/c2cc(OC)c(OC)cc2OC)nc1
 : -3.8	?	11%	12%	?	/	-3%
> COc1ccc(S(=O)(=O)Nc2cccc(SC)c2)cc1OC
 : -0.6	8.5%[38.3 µM]	-34%	10%	-1.0%	0.1	-22%
> CCN(CC)C(=O)C1CC(=O)N(c2ccc(F)c(Cl)c2)C1 (centres undefined)
 : -3.3	1.4%	-3%	5%	-12%	3.4	-8%
> COc1nc(OCC#N)nc(N(C)C)n1
 : -1.1	-0.2%	?	15%	-0.8%	3.3	3%
> CC(C)(C)c1ccc(S(=O)(=O)Nc2noc3ccccc23)cc1
 : -3.7	-0.3%	?	13%	-3.2%	1.7	-7%
> CCCCCCCCCC(=O)N/N=C/c1ccc(C)s1
 : -1.0	3.1%	6%	12%	0.2%	15	-8%
> O=C(O)CCCC(=O)Nc1nc(-c2ccccc2)cs1
 : -3.2	2.8%	-1%	25%	-1.3%	-1.4	?
> CCOC(=O)C1=C(C)NC2=C(C(=O)CC(C)(C)C2)C1c1cccc(C)n1 (centres undefined)
 : -3.7	-0.7%	-12%	3%	32µM*	3.5	-8%
> COCCNc1nc(NCc2cccs2)nc2ccsc12
 : 2.5	9.2%	/	/	-16%	/	/
> CC(C)C(NC(=O)c1ccc(F)cc1)C(=O)OCC(=O)N1CC(=O)Nc2ccccc21 (centres undefined)
 : -3.3	-2.3%	-3%[15.4 µM]	9%	1.6%	7.3	4%
> CNC(=O)COC(=O)/C=C/c1ccco1
 : -3.0	1.4%	-59%[inhibitor]	0%	-6.4%	-0.7	-2%
> Cc1cccc(NC(=O)C2CCCN(S(=O)(=O)c3ccc4c(c3)oc(=O)n4C)C2)c1 (centres undefined)
 : -1.0	-1.3%&-0.8%	3%[15.4 µM]	21%	-2.2%	6.0	-5%
> Cc1cc(NC(=O)CSc2cn(CCNC(=O)c3ccc(F)cc3)c3ccccc23)no1
 : -3.3	0.8%	24%	1%	3.3%	0.8	?
> O=S(=O)(c1ccc(OCC(O)CNC23CC4CC(CC(C4)C2)C3)c(Cl)c1)N1CCOCC1 (centres undefined)
 : -1.1	0.8%	-2%	7%	/	-0.3	23%
> Fc1ccc(C2CC(c3ccco3)=NN2c2ccccc2)cc1 (centres undefined)
 : 0.7	0.2%	?	8%	1.7%	1.8	2%
> OC(C#Cc1ccccn1)c1cccs1 (centres undefined)
 : -5.8	-0.1%	-23%	18µM*	0.2%	-20	37%[activator]
> Clc1ccc(CNC2CCN(Cc3ccccc3)CC2)cc1
 : -3.1	3.9%	2%	-19%	/	-7.9	16%
> CNC(=O)COc1ncnc2sc(C)c(C)c12
 : -0.2	-2.8%	-9%	3%	-1.1%	-0.4	6%
> O=C(Nc1ccccc1C(=O)NCCc1ccccc1)c1ccco1
 : -1.2	-3.4%	-21%	-4%	-1.9%	-1.7	-13%
> CC1CCCN(C(=O)c2cc3c(-c4ccc(Cl)cc4)nn(C)c3s2)C1 (centres undefined)
 : -2.0	6.9%	-3%	20%	-3.0%	0.5	-27%
> O=C(Nc1ccnn1C1CCN(C(=O)c2cc(Cl)ccc2F)CC1)C1CCOC1 (centres undefined)
 : -1.3	-1.1%	28%	6%	-1.4%	1.4	10%
> O=C(OCC(=O)N1CCN(C(=O)c2ccco2)CC1)c1sc2ccccc2c1Cl
 : 2.4	6.0%[38.3 µM]	9%	0%	-5.3%	4.2	-2%
> CC(C)CCN1CCN(Cc2cn[nH]c2C2CCCCC2)CC1CCO (centres undefined)
 : 3.4	-1.1%	-16%[15.4 µM]	18%	-5.2%	0.4	18%
> COc1ccc(CN2CCOCCOCCOCCOCC2)cc1
 : -1.5	-1.4%	-17%[15.4 µM]	26%	/	1.0	7%
> Cc1cscc1-c1ccc(C(=O)Nc2c(C)cccc2C)o1
 : -6.5	3.1%	/	/	0.9%	/	/
> CC1CCN(C(=O)Oc2ccccc2)CC1
 : -4.3	3.8%	1%[15.4 µM]	16%	/	-3.0	-10%
> COCc1cc(C)nc(N/N=C/c2ccc(Cl)c(Cl)c2)c1C#N
 : -2.0	0.5%	-11%	17%	-0.5%	1.5	6%
> Cc1ccccc1Oc1ccc(-c2nc(N)nc(N)n2)cc1
 : -2.3	0.5%	0%	9%	1.2%	-0.6	-1%
> O=C(O)c1ccc(NC(=O)c2ccccc2NC(=O)c2ccccc2Br)cc1
 : 0.1	3.0%	11%[15.4 µM]	1%	0.8%	-0.7	0%
> COc1ccc(NC(=O)C(CCS(C)(=O)=O)NC(C)=O)cc1 (centres undefined)
 : -3.2	-0.4%	22%	10%	?	1.0	3%
> CCOc1ccc(NC(=O)CN(C)C(=O)CCCc2nc3ccccc3c(=O)[nH]2)cc1OCC
 : -9.8	0.1%	5%[15.4 µM]	/	16µM*	/	2%
> COC(=O)/C(=C/c1cn(C(C)=O)c2ccccc12)[N+](=O)[O-]
 : -0.8	-1.4%	21%[15.4 µM]	13%	/	0.0	-8%
> O=C(COC(=O)c1ccccc1Cl)Nc1cccnc1Cl
 : 1.8	-0.6%	-9%	/	-0.3%	/	-2%
> CN1CCN(Cc2nc(Cc3cccc(F)c3)no2)CC1c1ccccc1 (centres undefined)
 : -1.7	1.7%	-6%[15.4 µM]	-27%	/	-0.7	15%
> Cc1ccn2c(=O)nc(SCC(=O)N3CCN(c4ccccc4)CC3)nc2c1
 : 2.2	1.0%	?	/	-2.5%	/	0%
> O=C(COc1ccccc1)Nn1cnc2ccccc21
 : -1.3	/	3%	?	-3.0%	4.0	-5%
> NC(=O)c1ccccc1NC(=O)Nc1cccc(Cl)c1
 : -3.0	?	26%	20%	-11%	-0.3	-13%
> Cc1sc2ncnc(Sc3ccccc3C(=O)Nc3ccc(Br)cc3)c2c1C
 : -1.4	-0.1%	-4%	50µM*	-7.6%	18	-9%
> N#Cc1c(N)nc(SCc2ccccc2)c(C#N)c1-c1ccco1
 : 1.6	5.2%[38.3 µM]	8%	8%	?	?	13%
> O=C(NN1CC(C(=O)OCc2ccc(Cl)cc2Cl)CC1=O)c1ccccc1 (centres undefined)
 : 2.4	1.6%	-2%	10%	0.7%	/	-1%
> Cc1cc(OCC(=O)NCCc2ccc(S(N)(=O)=O)cc2)c2c(C)cc(=O)oc2c1
 : 2.3	-0.8%	11%	6%	3.9%	-0.1	-6%
> COCCCNC(=O)CCc1nc(-c2ccccc2)no1
 : -3.4	-5.0%	24%	-6%	0.1%	2.7	6%
> COc1ccc(CCNC(=O)c2ccc(OC)c(OC)c2)cc1OC
 : 4.3	0.2%	8%	20%	/	0.9	1%
> Cn1c(=O)c2c(nc(CN3CCN(Cc4ccccc4)CC3)n2CCN2CCOCC2)n(C)c1=O
 : -3.5	-0.8%	?	7%	-1.1%	-0.5	-10%
> CC(C)OCCCn1c(-c2ccc(Br)cc2)c[nH]c1=S
 : 1.4	3.8%	3%[15.4 µM]	?	-6.1%	0.2	-10%
> Cc1ccc(S(=O)(=O)Oc2cccc(/C=N/n3cnnc3)c2)cc1
 : -4.4	8.9%	?	-6%	-1.7%	3.5	3%
> O=C(CSc1nnc(CNC(=O)c2ccccc2)o1)NCc1ccccc1Cl
 : -0.6	0.1%	-55%[inhibitor]	9%	32µM*	/	12%
> CCc1ccccc1NC(=O)CN1CCN(CC(=O)Nc2ccc(-c3ccccc3)cc2)CC1
 : -2.2	0.7%	14%	-4%	/	4.2	-17%
> CC1(C)Cc2c(sc3c2c(=O)n(-c2ccc(Cl)cc2)c(=O)n3CC(N)=O)CO1
 : -2.3	-0.6%	-4%[15.4 µM]	18%	0.5%	1.7	-31%
> CSc1nsc(SCC(=O)Nc2ccc(F)cc2F)n1
 : 4.4	0.8%	18%[15.4 µM]	-6%	/	2.4	-9%

Later entries.
Values run as follows: D2 ag	PINK1 modulator	gsp agonist	Sfp inh	ClpP mod	Menin-MLL FL inh	gsp antag
> CCc1ccccc1NC(=O)CSc1nnc(CCNC(=O)OC(C)(C)C)o1
 : -0.9	1.3%	6%	15%	/	-2.9	0%
> O=C(NCCc1ccc(F)cc1)c1coc(=O)c(Br)c1
 : -0.5	5.8%	-26%	9%	-4.1%	5.0	2%
> Cc1ccc(S(=O)(=O)N(CC(O)CN2CCCCC2)c2cccc([N+](=O)[O-])c2)cc1 (centres undefined)
 : -6.4	0.2%	7%[15.4 µM]	9%	-1.5%	2.6	7%
> CCOc1ccc(NC(=O)[C@@H]2CCCN2C(=O)c2cccs2)cc1S(=O)(=O)N1CCOCC1
 : 0.0	-0.7%	?	/	-10%	/	6%
> CCC1Oc2ccccc2N(CC(=O)NCCCN2CCCCC2C)C1=O (centres undefined)
 : -1.0	-6.9%[38.3 µM]	?	9%	-5.0%	-0.9	2%
> O=C(O)CCC(=O)Nc1ccc(C(=O)N2CCCCC2)cc1
 : -2.9	-1.1%[38.3 µM]	-23%	13%	-0.3%	3.8	1%
> O=C(COC(=O)CNC(=O)c1ccco1)Nc1ccc(Cl)cn1
 : -0.4	14%	7%	13%	-0.1%	-0.7	12%
